TRPML1 inh = human mucolipin-1 channel inhibition. TRPML1-inducible cells, Ca2+ dye fluorescence, FDSS; hits give low values; inhibition of EC80 agonist-evoked calcium signal. activity change, negative = inhibition, % (test concentration not listed). 0.02% of 390,000 active. AID 624415; in the data active means activity change below about -50%; inconclusive means about -30% to -50%; inactive means above about -30%;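 note: stimulus is agonist 54-4 at its EC80 concentration; % is set by controls: 0 for no effect and ±100 for the full control effect; compound concentration not given in the record; the text of the record puts the active cut at -80%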
Target sequence (Q9GZU1 whole entry, looked up): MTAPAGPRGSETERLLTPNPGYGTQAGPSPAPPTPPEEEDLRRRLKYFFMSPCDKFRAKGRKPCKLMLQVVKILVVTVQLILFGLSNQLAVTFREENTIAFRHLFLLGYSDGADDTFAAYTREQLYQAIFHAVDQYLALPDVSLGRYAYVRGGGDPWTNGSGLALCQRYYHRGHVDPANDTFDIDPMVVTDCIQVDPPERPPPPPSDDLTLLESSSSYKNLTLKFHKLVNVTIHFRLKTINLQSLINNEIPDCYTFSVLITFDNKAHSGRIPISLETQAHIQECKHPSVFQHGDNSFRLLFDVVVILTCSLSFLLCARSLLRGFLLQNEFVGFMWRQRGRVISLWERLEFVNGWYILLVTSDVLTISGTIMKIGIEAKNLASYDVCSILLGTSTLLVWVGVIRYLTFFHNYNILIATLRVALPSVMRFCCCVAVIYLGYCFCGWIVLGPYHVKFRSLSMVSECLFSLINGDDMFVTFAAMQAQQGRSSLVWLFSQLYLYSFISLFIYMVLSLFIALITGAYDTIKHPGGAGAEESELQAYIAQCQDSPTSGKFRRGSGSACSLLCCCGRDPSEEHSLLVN
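Tet-induced TRPML1-DL cells loaded with Ca8 no-wash calcium dye were read kinetically on FDSS. Compound addition was followed by EC80 agonist 54-4 (4 uM final); inhibition was read over 110 s.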
TRPML1 ag = activates the human TRPML1 channel; TRPML1-expressing cells, Ca2+ dye fluorescence, FDSS; host cell line not named in the record; reference of the full effect not given here; 0.12% of 410,000 active; Q9GZU1; activation, % (no concentration beside the values); in the data active = activation above about 50%; inconclusive = about 30% to 50%; inactive = below about 30%; note: 0% is about no effect; the text of the record puts the active cut at 80%
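Agonist activity was taken from a 110 s kinetic Ca2+ dye read on the FDSS after pinning compounds onto TRPML1-DL cells. The cells were seeded at 1,500/well with Tet inducer, incubated about 16 h, then dye-loaded at room temperature.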
gsp ag = activates gsp, the McCune-Albright syndrome mutation | gsp mutant cells, cAMP HTRF, 30 min; control for the full effect not named in the record | Potency, µM (highest dose often 76.9 µM), for the others: top-dose activation (cAMP increase), usual class: activators | 0.13% of 340,000 active | AID 624287; active = well fitted activation curve with a large enough effect; inconclusive = small, poorly fitted or top-dose-only effect, or another doubt; inactive = no such curve, though single readings can be large or run the other way; cell line not stated here;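 note: phosphodiesterase inhibitor Ro 20-1724 added with compounds to block cAMP breakdown; potency is the fitted concentration of half-maximal effect; nearly all actives have a fitted effect of over 60% in size; about a fifth of the inactives were tested at one dose only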
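Cells stably selected in G418 were plated at 2000/well, grown 16-24 hr, then given compounds in DMSO with the PDE inhibitor […] (300 uM solution added) for 30 min at 37C; cAMP was read by HTRF.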
gsp antagonist = antagonists of gsp mutant (McCune-Albright syndrome). gsp-mutant cells, cAMP HTRF, 30 min; control for the full effect not named in the record. Potency, µM (titrated, usually from 76.9 µM), for the others: at the highest dose activity change, negative = inhibition, usual class: inhibitors. 0.4% of 340,000 active. AID 624288; active = falling curve of any shape with a large fitted effect; inconclusive = falling curve, mostly with a smaller effect; inactive = flat or rising curve; cell line not stated here;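 note: intracellular cAMP measured with PDE inhibitor Ro 20-1724 present during compound exposure; potency is the fitted concentration of half-maximal effect; % is set by controls: 0 for no effect and ±100 for the full control effect; nearly all actives have a fitted effect of over 65% in size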
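HTRF cAMP read-out (cAMP-d2 plus anti-cAMP antibody-K in lysis buffer, 30 min RT). Before lysis, cells are exposed to compounds with […] for 30 min at 37C in DPBS containing Ca/Mg, BSA and Tween 20.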
ClpP mod = qHTS Assay for Activators of ClpP | ATP-dependent Clp protease proteolytic subunit (Bacillus subtilis (strain 168)), P80244 | purified B. subtilis ClpP, FRET peptide cleavage, 20 min | Potency, µM (doses to about 57.5 µM), for inactives: at the top dose activity change, negative = active | 1.9% of 340,000 active | AID 651965, 2013; active = well fitted falling curve with a large enough effect; inconclusive = small, poorly fitted or top-dose-only effect; inactive = no such curve, though single readings can be large or run the other way; note: potency is the fitted concentration of half-maximal effect; the source files actives as falling curves though it sought activators and does not explain the sign; nearly all actives have a fitted effect of over 65% in size; many hits overshoot -100%
Target sequence (P80244 whole entry, looked up): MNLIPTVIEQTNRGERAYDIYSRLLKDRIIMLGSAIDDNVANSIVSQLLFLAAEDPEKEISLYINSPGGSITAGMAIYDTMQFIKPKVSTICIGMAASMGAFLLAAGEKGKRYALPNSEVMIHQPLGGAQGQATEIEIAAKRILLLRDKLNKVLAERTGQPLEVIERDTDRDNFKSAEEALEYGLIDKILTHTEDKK
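Purified B. subtilis ClpP, 10 microg/mL final in Tris/HCl pH8 with KCl, BSA, glycerol and Tween-20, cleaved an Abz/nitrotyrosine-quenched decapeptide. Fluorescence (ex 320, em 430) was read at 0 and 20 min at room temperature. Delta was normalized to 5.8 microM ADEP and DMSO/no-enzyme controls.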
Menin MLL FP FL = menin-MLL binding inhibition, fluorescein peptide. Fluorescence polarization, fluorescein-MLL peptide displacement from menin. FP activity change, % at 61.4 µM. 290,000 tested, under 10 active. AID 1766; inconclusive = falling polarisation curve, or a change in total fluorescence; inactive = total fluorescence flat and polarisation flat or rising; no compound was filed as active; the % refers to the polarisation; negative = inhibition;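 note: % of control where 0% means no effect; inhibitors lower the polarisation; unlabelled MLL peptide was the positive control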
* marks the source's active call; other numbers are inactive results; u = inconclusive; x = not tested or not shown; [ ] = remark or other dose.

mol	TRPML1 inh	TRPML1 ag	gsp ag	gsp antagonist	ClpP mod	Menin MLL FP FL
O=C(Nc1ccc(N2CCN(C(=O)c3ccccc3)CC2)c(Cl)c1)c1ncn[nH]1	11	1.4	-10%[15.4 µM]	u	x	-3.5
CCc1ccc(OCCn2ccnc2)cc1	4	-0.6	-3%[15.4 µM]	-2%	-0.2%	-1.5
COC1OCC(O)C(OC(=O)c2ccccc2)C1OC(=O)c1ccccc1 (configuration not stated)	9	-0.2	-2%	-3%	x	x
COc1ccc(C(=O)OCC(=O)NC(C)CCc2ccccc2)cc1OC (configuration not stated)	x	x	u	7%	-3.9%	-5.8
CC(=O)Nc1cccc(Oc2ncnc3scc(-c4ccccc4)c23)c1	2	-0.3	-1%	10%	x	6.5
C=CCc1c(C)[nH]c2ccc(C)cc2c1=O	u	0.2	-20%	-16%	-23%	4.8
C/C=C(\C)C(=O)NCCN1C2=NC[C@H](Cc3ccc(O)cc3)N2C[C@H]1Cc1ccc(O)cc1	4	-1.0	u	4%	2.7%	-0.8
COC(=O)c1ccccc1NC(=O)N1CCN(c2ccc(OC)cc2)CC1	-11	0.4	-3%[15.4 µM]	0%	x	-3.0
COc1ccc(CCN(Cc2cccs2)S(=O)(=O)c2ccc(-n3cnnn3)cc2)cc1OC	17	-0.4	u	-2%	-1.7%	5.8
CCCC(=O)Nc1ccc(C(=O)NNC(=O)c2cccs2)cc1	2	0.1	-4%	3%	-0.7%	4.0
CCC1CCc2c(sc(NC(=O)c3ccco3)c2C(N)=O)C1 (configuration not stated)	4	-0.6	0%	-25%	-21%	2.8
CN(Cc1ccc(Br)cc1)CC(O)COc1cccc(Br)c1 (configuration not stated)	3	-0.8	-3%[15.4 µM]	12%	x	0.9
Cc1cccc(Cn2c(C)c(C)c3cc(C(=O)NCCN4CCOCC4)ccc32)c1	32	-1.0	-14%	4%	u	5.3
O=S(=O)(c1ccc(Br)s1)n1cccn1	-6	0.1	12%	-4%	-0.4%	-0.6
Cc1ccc(OCCC(=O)Nc2ccc(S(=O)(=O)Nc3cc(C)nc(C)n3)cc2)cc1	8	-0.9	3%	-14%	-0.5%	x
CC(C)CCNC(=O)NC(=O)CSc1ccc(S(=O)(=O)N2CCOCC2)cn1	9	1.2	-30%	10%	0.3%	x
OC(CN1CCN(c2ccccn2)CC1)Cn1c2ccc(Cl)cc2c2cc(Cl)ccc21 (configuration not stated)	22	0.1	4%	8%	-20%	1.0
O=[N+]([O-])c1ccc2c(c1)C(O)n1ncnc1S2 (configuration not stated)	-2	-0.2	-2%[15.4 µM]	6%	x	-1.9
CCOC(=O)[C@H]1[C@H]2COc3cc(OC)ccc3[C@@H]2N2C(=O)c3cc(F)c(F)cc3NC(=O)[C@@]12C	-14	0.4	-3%	-6%	-4.7%	x
CC(C)CC(N)C(=O)OCc1ccc([N+](=O)[O-])cc1 (configuration not stated)	6	-0.6	2%[15.4 µM]	14%	0.2%	5.2
COc1ccc(CNC(=O)[C@H](C)NC(=O)C2CCN(C(=O)[C@@H](N)CCSC)CC2)cc1	x	x	x	13%	1.8%	3.1
CCNc1nc(NCC)n2c(SC(C(=O)Nc3cc(Cl)cc(Cl)c3)c3ccccc3)nnc2n1 (configuration not stated)	4	-0.8	12%[15.4 µM]	5%	1.3%	5.7
CCOc1ccc(OCCSc2nc(-c3ccccc3)cc(=O)[nH]2)cc1	-2	-0.4	-10%[15.4 µM]	-7%	x	-4.5
O=C(C(=O)N1CCCCC1)c1cn(CC(=O)N2CCCCCC2)c2ccccc12	-19	0.3	-12%[15.4 µM]	-5%	0.2%	x
CCN(CC)S(=O)(=O)c1ccc(NC(=O)COC(=O)CCc2cc(OC)c(OC)c(OC)c2)cc1	9	0.5	-22%	4%	-1.7%	2.1
Cc1nn(-c2ccc(Cl)cc2)c2sc(C(=O)N3CCN(c4ccccn4)CC3)cc12	45	-0.4	u	8%	-0.8%	4.5
COc1ccc(OC)c2[nH]c(=O)c(CCNC(=O)c3ccc(S(=O)(=O)N4CCCC4)cc3)cc12	6	-1.2	-36%[inhibitor]	-24%	-0.7%	0.3
Cc1cccc(NC(=O)NNC(=O)c2c(Cl)c(C)nn2C)c1	4	0.0	-34%[inhibitor]	-2%	-2.3%	2.7
CC(=O)Nc1sc(NC(=O)c2ccccc2)nc1-c1cccs1	6	-0.3	25%	-12%	4.2%	0.1
CCN(CC)c1ccc(/C=N/N2C(=O)c3ccccc3C2=O)c(O)c1	-9	0.7	-14%	9%	-1.3%	10
COc1ccc(Cc2nnc(NC(=O)CS(=O)(=O)c3ccc(C)cc3)s2)cc1OC	9	0.1	-17%	-15%	x	0.7
O=C(Nc1cccc(NC(=O)c2cccc(Cl)c2)c1)c1cccnc1	16	-0.5	-7%[15.4 µM]	-4%	x	5.0
CCc1ccccc1OCC(=O)Nc1cc(S(=O)(=O)N(CC)CC)ccc1N1CCOCC1	-4	0.7	-2%	u	-3.5%	x
O=C(CCN1C(=O)/C(=C\C=C\c2ccccc2)SC1=S)Nc1ccc(C(=O)O)cc1	21	-0.7	4%	-23%	-0.4%	x
Cc1ccc(NC(=O)CSCC(=O)N(C)Cc2c(F)cccc2Cl)cc1	31	-1.0	-22%	x	1.5%	x
CC(C)n1c(Oc2ccc(F)cc2)nc2c1c(=O)n(C)c(=O)n2C	15	-0.8	-7%[15.4 µM]	10%	x	-0.2
CC(C)c1ccc(Nc2nc(N3CCOCC3)nc(N3CCOCC3)n2)cc1	19	-0.8	10%	x	0.5%	x
COC(=O)c1ccc(/C=C/c2c(-c3ccc(OC)cc3)oc3ccccc23)cc1	5	-0.7	x	7%	4.0%	-3.5
CC(NC(=O)C1CCN(S(=O)(=O)c2cnc[nH]2)CC1)c1ccccc1 (configuration not stated)	-2	0.3	-13%	2%	-1.7%	2.7
Cc1ccn2c(Nc3ccc(F)cc3)c(-c3ccccn3)nc2c1	16	-0.4	x	x	-2.3%	x
Nc1ccc(C(=O)Nc2ccccc2C(=O)O)cc1	7	0.9	12%	0%	-1.6%	-0.9
CC(NC(=O)COC(=O)c1ccco1)c1ccccc1 (configuration not stated)	-1	0.5	-24%	12%	-2.2%	0.4
COc1ccc(C2CC(c3ccccc3F)=NN2c2ccc(S(N)(=O)=O)cc2)cc1 (configuration not stated)	-11	-1.1	x	1%	4.2%	x
COc1cc(-c2nc(-c3ccncc3)no2)cc(OC)c1OC	-5	0.3	15%	8%	-1.3%	1.4
C[C@@H]1C(=O)O[C@@H]1[C@@H](C)CO[Si](c1ccccc1)(c1ccccc1)C(C)(C)C	-12	0.7	x	x	x	-0.5
CC1CN(S(=O)(=O)c2cc(C(=O)NC(C)c3cccnc3)ccc2Cl)CC(C)O1 (configuration not stated)	-12	1.3	24%[15.4 µM]	-9%	0.1%	x
CN(CC(=O)Nc1ccccc1Cl)C(=O)COC(=O)c1ccc(=O)n(Cc2ccccc2)n1	5	-0.5	-21%[15.4 µM]	-8%	0.2%	x
Cc1ccccc1-c1cc(C(=O)Nc2sc(C)c(C)c2C(N)=O)c2ccccc2n1	12	-0.1	-1%	-3%	-0.9%	11
Cc1ccc(NC(=O)CN2C(=O)CCc3cc(S(=O)(=O)N4CCOCC4)ccc32)c(C)c1	29	0.4	x	x	-0.6%	x
CCOC(=O)c1c(-c2ccc(OC)cc2)oc2ccc(OCc3ccccc3C)cc12	14	0.2	x	x	3.9%	x

Next results.
mol	TRPML1 inh	TRPML1 ag	gsp ag	gsp antagonist	ClpP mod	Menin MLL FP FL
O=C(CN1CCCN(S(=O)(=O)c2ccc(Br)s2)CC1)Nc1ccc(Cl)cc1	49	-0.3	1%	0%	-2.8%	1.8
CCOC(=O)C(=CNc1cccnc1Oc1ccc(C)c2c1CCC2)C(=O)OCC	7	0.6	-8%[15.4 µM]	u	-0.8%	-0.6
O=C1C(=O)N(C2CCN(C(=O)c3cccc(Cl)c3)CC2)CCN1Cc1ccc(F)cc1	0	-0.4	x	x	1.7%	x
CCN(CC)S(=O)(=O)c1cccc(C(=O)NNC(=O)C2=NN(c3ccccc3)C(=O)CC2)c1	-4	-0.6	u	11%	-0.4%	-2.0
CC(=O)c1ccc2c(c1)C1C=CCC1C(c1cc3c(cc1Br)OCO3)N2 (configuration not stated)	66	0.1	x	3%	u	x
CC(C)Cc1nnc(NC(=O)CCNC(=O)c2ccccc2Cl)s1	-1	0.3	-41%[inhibitor]	5%	2.0%	x
CCN(CC)S(=O)(=O)c1ccc(-c2nnc(SCC(=O)N3c4ccccc4CC3C)n2CC)cc1 (configuration not stated)	7	0.3	0%	28µM*	1.2%	0.6
COc1ccc(NC(=O)Cc2nnc(N)s2)cc1	-8	0.2	-4%[15.4 µM]	10%	x	0.4
Cc1ccc2c(CC(=O)Nc3ccccc3C(F)(F)F)coc2c1C	2	0.7	x	x	0.5%	x
CCc1nnc(NC(=O)CC23CC4CC(CC(Br)(C4)C2)C3)s1	10	0.5	-6%[15.4 µM]	-8%	x	-0.8
Cn1nc(C(=O)N2CCc3ccccc3C2)c2ccccc2c1=O	-20	0.6	-21%	-2%[15.4 µM]	-2.9%	2.2
CS(=O)(=O)N(CC(=O)NCCSCc1ccccc1)c1ccccc1Cl	8	0.6	14%	-5%	x	3.1
Cc1cc(C)cc(NC(=O)CSc2nnc(CNC(=O)c3c(F)cccc3Cl)o2)c1	8	0.9	x	x	-0.2%	x
NC(=O)CC(NC(=O)Cc1ccc(Cl)cc1)c1ccc(NCCN2CCOCC2)c([N+](=O)[O-])c1 (configuration not stated)	0	-0.3	x	3%	1.3%	1.6
Cc1nc2nc(C)c(NS(=O)(=O)c3ccc(Cl)cc3)c(=O)n2[nH]1	29	0.0	2%	8%	x	-4.2
N#CC1(C(N)=O)OC12CCS(=O)(=O)c1ccccc12 (configuration not stated)	10	0.7	16%	1%	2.3%	x
Cc1ccc(NC(=O)N(Cc2c[nH]c3ccccc23)C2CCCCCC2)cc1C	-3	0.4	x	x	-6.3%	x
O=c1c2ccccc2nc(SCCN2CCOCC2)n1CCc1ccccc1	59	-0.1	-2%	u	x	-0.6
Cc1ccc2c(c1)c(-c1ccccc1)nc1nncn12	-9	-0.2	7%	-5%	-4.0%	-0.7
CC/C(O)=C(\C#N)c1nnc2n1CCCCC2	31	0.4	1%	2%	-2.2%	0.0

High-throughput results deposited in PubChem BioAssay by National Center for Advancing Translational Sciences (NCATS).
